VDR inhibitor: vitamin D3 receptor (human) inhibition; P11473; VDR-SRC2-3 peptide fluorescence polarization, 2 h; Potency, µM, without a hit: max response, negative = inhibition, most hits filed as inhibitors; 400,000 tested, 0.93% active; AID 504847; active means well fitted inhibition curve with a large enough effect; inconclusive means small, poorly fitted or top-dose-only effect, or another doubt; inactive means no such curve, though single readings can be large or run the other way; further: series mostly up to about 120 µM
Target sequence (P11473 whole entry, looked up): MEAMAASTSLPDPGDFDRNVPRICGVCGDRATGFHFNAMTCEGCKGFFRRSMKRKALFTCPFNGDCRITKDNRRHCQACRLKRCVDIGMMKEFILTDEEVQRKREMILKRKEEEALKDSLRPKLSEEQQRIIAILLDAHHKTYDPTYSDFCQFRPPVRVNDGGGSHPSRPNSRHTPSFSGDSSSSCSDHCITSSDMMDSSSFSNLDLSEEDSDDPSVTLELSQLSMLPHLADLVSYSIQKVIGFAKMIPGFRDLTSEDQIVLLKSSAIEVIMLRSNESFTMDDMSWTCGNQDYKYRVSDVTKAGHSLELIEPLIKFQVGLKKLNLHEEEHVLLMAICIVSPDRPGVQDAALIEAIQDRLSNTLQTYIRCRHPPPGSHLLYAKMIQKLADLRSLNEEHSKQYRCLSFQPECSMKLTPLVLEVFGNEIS
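Signal is fluorescence polarization, reporting how far test compounds block the interaction of VDR with the SRC2-3 coregulator peptide after a 2 h room-temperature incubation.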
Starred values were filed as active, the others as inactive; ? = inconclusive. On the % scale 0 is the no-effect control and ±100 the full control effect; potency means the concentration at half of the fitted maximal effect. Some of the compounds tested. The share of hits here may be higher or lower than overall.

SMILES	VDR inhibitor
CCN(CC)S(=O)(=O)c1ccc(NC(=O)c2cnc(C)cn2)cc1	?
Cc1nn(-c2ccccc2)c2nc(C3CC3)cc(C(=O)NCc3ccccc3Cl)c12	14%
Cc1ccccc1-n1c(Cn2c(=O)sc3ccccc32)nnc1SCC(=O)NCC1CCCO1 (stereo not drawn)	-7%
COc1ccc(CNC(=O)CSc2nnc(Cn3nnc4ccccc43)n2C)cc1	-12%
O=C(Nc1ccc2c(c1)OCCO2)c1cc2ccccc2o1	19%
CCOC(=O)c1cn2nc(Oc3ccc(C(=O)OC)cc3)ccc2n1	-22%
CC(=O)NC(=S)Nc1cccc([N+](=O)[O-])c1	-15%
CC(Oc1ccccc1)C(=O)Nc1cccc(F)c1 (stereo not drawn)	-8%
O=C(c1ccccc1)N1N=C(c2ccccc2)CC1c1ccccc1O (stereo not drawn)	?
CCN(CC(=O)Nc1ccc(NC(C)=O)cc1)C(=O)c1c(C)nn(Cc2ccc(C)cc2)c1Cl	0%
CSc1cccc(NC(=O)c2ccc3c(c2)c(C)c(C)n3Cc2ccc(F)cc2)c1	-1%
CN1CCN(c2ccc(-c3cccc(NC(=O)COc4ccccc4)c3)nn2)CC1	8%
Nc1nonc1-n1nnc(C(=O)c2ccccc2)c1-c1ccccc1	-2%
O=C(NCCc1ccc(C(F)(F)F)cc1)c1ccc(Cl)nc1	15%
CCOC(=O)c1c(C)[nH]c(C(=O)COC(=O)Cn2cc(C(F)(F)F)ccc2=O)c1C	-4%
Cc1cc(/C=N/NC(=O)c2nn(C)cc2Cl)c(C)n1-c1cccc(Br)c1	2%
COc1ccc(NC(=O)C2CCCN(c3ncnc4onc(C)c34)C2)cc1OC (stereo not drawn)	12%
CC(=O)Nc1ccc(C2NC(=S)N(c3ccccc3C(F)(F)F)C(C)=C2C(=O)N2CCOCC2)cc1 (stereo not drawn)	-5%
CCOC(=O)c1nnn2c1nc(N(CC)CC)c1ccccc12	3%
COc1cc(/C=C/c2nc(C#N)c(N3CCCCC3)o2)cc(OC)c1OC	2%
Cc1ccccc1C(=O)NNC(=O)C1CCN(C(=O)Nc2ccccc2)CC1	-23%
Cc1cc(C)nc(Nc2ccc(N3CCOCC3)cc2)n1	-2%
Cc1c(C(=O)Nc2ccccc2)cn2c(nc3ccccc32)c1C#N	-23%
O=C(N/N=C/c1cc(Br)ccc1OC(=O)c1ccc(Br)cc1)c1ccncc1	9%
CCc1ccc(C2c3[nH]c4ccccc4c3CCN2C(=O)c2ccc(=O)n(C)n2)cc1 (stereo not drawn)	23%

In the list so far, these have an NH in an aromatic ring.
SMILES	VDR inhibitor
CCOC(=O)c1c(C)[nH]c(C(=O)COC(=O)Cn2cc(C(F)(F)F)ccc2=O)c1C	-4%
CCc1ccc(C2c3[nH]c4ccccc4c3CCN2C(=O)c2ccc(=O)n(C)n2)cc1 (stereo not drawn)	23%

Other entries follow.
SMILES	VDR inhibitor
CC1CCN(C(=O)C2CCN(S(=O)(=O)c3cnc[nH]3)CC2)CC1	16%
NC(CCCCCP(=O)(c1ccccc1)c1ccccc1)C(=O)O (stereo not drawn)	-7%
O=C(Nc1ccc(N2CCCCC2)cc1)c1ccc2c(c1)OCCO2	13%
Cc1sc2nc(SCC(=O)NCCO)n(C)c(=O)c2c1C	-9%
NC(=O)CN1C(=O)C(=O)N(Cc2ccccc2)C1=O	-1%
CN1C(=O)c2ccc(C(=O)NCc3ccccn3)cc2C1=O	-3%
CC1CCCN(CCC(=O)Nc2ccc3c(c2)CCC3)C1 (stereo not drawn)	6%
COc1ccc(-c2noc(CSc3nnc(C)n3-c3ccc(C)cc3)n2)cc1OC	8%
COc1ccc(N(CC(=O)N/N=C(\C)CCc2ccccc2)S(=O)(=O)c2ccc(C)cc2)cc1	13%
Cc1ccc(C(=O)NC2CCN(CC(=O)Nc3cccc([N+](=O)[O-])c3)CC2)cc1	-13%
O=C(Nc1ccc(SC(F)F)cc1)c1cc(-c2ccc3c(c2)OCCO3)on1	-1%
CCCCc1ccc(S(=O)(=O)NNC(=S)NCc2ccco2)cc1	-24%
COCCN(CC(=O)Nc1cccc(C)c1C)C(=O)C1(c2ccccc2)CC1	-24%
O=C(Nc1ccc(F)cc1)C(c1ccccc1)N1CCN(S(=O)(=O)c2ccccc2)CC1 (stereo not drawn)	-21%
COC(=O)C(NC=O)C(O)(Cc1ccccc1)C(F)(F)F (stereo not drawn)	5%
Cc1cccc([C@@H]2[C@@H]3C(=O)N(Cc4ccccc4)C(=O)[C@@H]3[C@]3(Cc4ccccc4)C(=O)N(c4ccccc4)C(=O)N23)c1	-23%
COC(=O)c1ccc(OC(=O)C2CC(=O)N(c3cccc(C)c3)C2)cc1 (stereo not drawn)	?
COC(=O)C1(C)NC(c2ccco2)C2C(=O)N(c3ccc(C)cc3)C(=O)C21 (stereo not drawn)	-7%
CCO[C@H]1OC(C(=O)NC2CC2)=C[C@@H](C)[C@@H]1CCCO	-4%
C[C@H](NC(=O)OC(C)(C)C)c1nnc(SCC(=O)Nc2ccc(Br)cc2)o1	12%
CS(=O)(=O)Nc1ccc(-c2ccc(/C=C3\SC(N)=NC3=O)o2)cc1	-18%
O=[N+]([O-])c1ccc2nc(SCc3cn4ccccc4n3)[nH]c2c1	3%
COc1ccc(N2CC(O)=C(c3nc(-c4ccc(Cl)cc4)cs3)C2=N)cc1	-25%
CN(C(=O)COC(=O)Cn1cnc2ccccc21)C1CCCCC1	-2%
C=CCNC(=S)Nc1sc2c(c1C(=O)OCC)CCN(C(=O)OCC)C2	-30%

3 entries from above, arranged by their value in VDR inhibitor, high to low:
SMILES	VDR inhibitor
O=C(Nc1ccc(N2CCCCC2)cc1)c1ccc2c(c1)OCCO2	13%
COc1ccc(-c2noc(CSc3nnc(C)n3-c3ccc(C)cc3)n2)cc1OC	8%
CN(C(=O)COC(=O)Cn1cnc2ccccc21)C1CCCCC1	-2%

The list goes on:
SMILES	VDR inhibitor
O=C1CC(=O)C(n2cncn2)C(c2ccc(Cl)cc2Cl)C1 (stereo not drawn)	-9%
CC(C)NC(=O)c1ccccc1NS(=O)(=O)c1ccc(Br)s1	-24%
COc1ccc(NC(=O)N2CCC3(CC2)CCN(S(C)(=O)=O)CC3)cc1	3%
C=CCn1cc(C(=O)OC)c(=O)c2cc(S(=O)(=O)N3CCCCCC3)ccc21	5%
CCOC(=O)[C@H]1[C@H]2COc3cc(OC)ccc3[C@@H]2N2C(=O)N(c3cccc(Cl)c3)C(=O)[C@@]12C	-14%
CCCC(C)C(=O)Nc1ccc(C(N)=O)cc1 (stereo not drawn)	-1%
O=C(CN1CCCCC1)NNC(=O)c1ccc([N+](=O)[O-])cc1	?
Cc1cccc(-n2c(C)cc(/C=N/O)c2C)c1	-6%
Cc1ccccc1SCC(=O)NC1CCOC1=O (stereo not drawn)	-5%
COc1cccc(NC(=O)Cn2c(=O)n(CCC(=O)NCc3ccccc3OC)c(=O)c3ccccc32)c1	-9%
Cc1cccc(C)c1NC(=O)CSc1nc(N2CCOCC2)nc(N2CCOCC2)n1	3%
O=C(CN1CCN(Cc2ccccc2)CC1)Nc1cccc(S(=O)(=O)N2CCCCCC2)c1	-5%
[N-]=[N+]=NC1c2ccccc2C(=O)N1Cc1ccccc1 (stereo not drawn)	1%
N#CC1(C(N)=O)OC12CCS(=O)(=O)c1ccccc12 (stereo not drawn)	-1%
Cc1ccccc1N1C(=O)c2ccccc2C1O (stereo not drawn)	-28%
Cc1cccc(-c2nnc(NC(=O)c3cccs3)s2)c1	-1%
COc1ccc(Br)cc1-c1noc(-c2ccncc2)n1	-8%
COc1ccc(-c2nn(-c3ccccc3)cc2/C=C/C(=O)N2CCOCC2)cc1OC	16%
O=[N+]([O-])c1ccc(S(=O)(=O)c2ccccc2)nc1	40µM*
O=C(O)c1cnc(-c2ccccc2)nc1Oc1ccc(Cl)cc1	-3%
COc1ccc2c(c1)NC1(O)c3ccccc3C(=O)C21O (stereo not drawn)	2%
Cc1cccc(-c2nc3c(c(SCC(=O)N4CCOCC4)n2)CCCC3)c1	-4%
CCc1nc(SCC(=O)Nc2ccc(N(C)C)cc2)c2ccccc2n1	?
COc1ccc2c(CC(=O)N3CCc4cc(OC)c(OC)cc4C3)coc2c1	10%
CSc1nc2ccc(NC(=O)NC(=O)c3c(F)cccc3F)cc2s1	-11%

Looked up above:
CCCC(C)C(=O)Nc1ccc(C(N)=O)cc1 (stereo not drawn) – VDR inhibitor = -1%
COc1ccc2c(CC(=O)N3CCc4cc(OC)c(OC)cc4C3)coc2c1 – VDR inhibitor = 10%

The list continues:
SMILES	VDR inhibitor
COc1cc(NC(=O)CN(c2ccc(C)cc2)S(=O)(=O)c2cccc3nonc23)cc(OC)c1	4%
COc1ccc(NC(=S)N(CCCN2CCOCC2)C(C)c2cc3cccc(OC)c3o2)cc1 (stereo not drawn)	10%
Cc1ccc(NC(=O)CCC(=O)N/N=C/c2ccc(O)cc2O)cc1	-7%
COc1cc(OC)c(OC)cc1/C=N/n1c(C)nc2ccccc2c1=O	4%
O=C(O)CN1C(=O)/C(=C/c2ccc(SCc3ccccc3)o2)SC1=S	?
COc1cc(/C=C/C(=O)OCC(=O)c2ccc[nH]2)cc(OC)c1OC	6%
Cc1ccc(N(CC(=O)NC2CCCCC2)C(=O)CCCC(=O)Nc2ccccn2)cc1	-1%
COC(=O)c1cc(NC(=O)CC2Oc3ccccc3NC2=O)cc(C(=O)OC)c1 (stereo not drawn)	1%
COc1cccc(CCC(=O)N(C)C2CCCN(Cc3ccccc3F)C2)c1 (stereo not drawn)	-10%
Nc1nnc(SCc2c(F)cccc2Cl)s1	5%
COc1ccc(CCCC(=O)N/N=C/c2cccc(OC)c2O)cc1C	10%
CCOC(=O)c1[nH]c(C)c(CCC(=O)Nc2cc(Cl)ccc2C)c1C	0%
C[C@@H]1O[C@@H](OC[C@H]2O[C@@H](Oc3cc(O)c4c(c3)O[C@H](c3ccc(O)c(O)c3)CC4=O)[C@H](O)[C@@H](O)[C@@H]2O)[C@H](O)[C@H](O)[C@H]1O	1%
CCC1CCc2c(sc(NC(=O)c3ccco3)c2C(N)=O)C1 (stereo not drawn)	3%
C#CCOCCOCCOCCNc1nc(N2CCN(C(=O)CCCCCCCCCCNC(=O)Cn3cc(C[C@@H](C)O)nn3)CC2)nc(N2CCN(C(=O)CCCCCCCCCCNC(=O)[C@H](CCCCN)n3cc(CCCC(=O)O)nn3)CC2)n1	-16%
COc1ccc(C2=CC3=C(Br)C(=O)C(C)(OC(=O)c4cnc5ccccc5n4)C(=O)C3=CO2)cc1 (stereo not drawn)	0%
CCOC(=O)c1c(NC(=O)CSc2nc3c(c(=O)n(C)c(=O)n3C)n2C(C)C)sc(C)c1C	3%
O=C(CSc1nnc(NC(=O)C2CCC2)s1)Nc1ccc(N2CCOCC2)cc1	2%
Cc1oc(CC(C)C)cc1C(=O)NCCCC(=O)O	-23%
COc1ccc(Nc2nc(N3CCN(S(C)(=O)=O)CC3)nc3ccccc23)c(OC)c1	6%
Cc1ccc(C(=O)Nc2ncc3c(Cl)cccc3n2)cc1	-22%
COc1ccc(OC)c(NC(=O)CN2C(=O)C(C)N(c3ccc(C)cc3)C2=O)c1 (stereo not drawn)	6%
O=C(NCc1ccccn1)c1cnc2sccn2c1=O	5%
CCOC(=O)N1CCC(NC(=O)c2cnn(-c3ccc(F)cc3)c2-n2cccc2)CC1	15%
CCCCCCCCCCC(C)=O	0%

Carrying on.
SMILES	VDR inhibitor
COc1ccc(/C=N/NC(=O)c2ccc3c(c2)OCCO3)cc1[N+](=O)[O-]	21%
Cc1ccc(C(C(=O)NCc2ccco2)N(C(=O)CNC(=O)c2cccs2)c2c(C)cc(C)cc2C)cc1 (stereo not drawn)	8%
COC(=O)c1cc(NC(=O)CN(C)C2CCS(=O)(=O)C2)cc(C(=O)OC)c1 (stereo not drawn)	-15%
c1ccc(OCc2nc3c4c(ncn3n2)-c2ccccc2CC42CCCC2)cc1	-13%
COc1ccnc2c1c(=O)n(Cc1c(F)cccc1Cl)c(=O)n2C	-16%
COc1cc2c(cc1C=O)OC(C)C2 (stereo not drawn)	13%
CON/C=C(\C=Nc1ccc(F)cc1)c1ncc(C(F)(F)F)cc1Cl	5%
COc1ccc(/C=N/NC(=O)C(=O)Nc2ccccn2)cc1OC	-3%
c1cnn(-c2nc(N3CCOCC3)nc(N3CCOCC3)n2)c1	2%
O=C(NCCCO)/C(=C/c1ccco1)NC(=O)c1ccc(Br)o1	16%
O=C(CNC(=O)C1CCCCC1)Nc1cc(Cl)cc(Cl)c1	-12%
Nc1c([N+](=O)[O-])cnnc1-c1ccccc1	-9%
Cc1ccc(-c2ccc(SCC(=O)NCC3CCCO3)nn2)cc1 (stereo not drawn)	-11%
CCOc1ccc(NC(=O)CSc2nnc(NC(=O)C3CC3)s2)cc1	-10%
CN1CCN(NC(=O)c2cccc(S(=O)(=O)N3CCCCCC3)c2)CC1	-16%
COc1ccc(N(C(=O)/C=C/c2ccc(OC)c(OC)c2)C2=CC3CCC(C2)N3C)cc1 (stereo not drawn)	1%
CCC1Oc2ccccc2N(CC(=O)NCCCN2CCCC2)C1=O (stereo not drawn)	-19%
CCN(CC)c1ccc(/C=N/OC(C)C(=O)Nc2ccc(C)cc2)cc1 (stereo not drawn)	0%
Cc1cc(C(=O)CSc2nnnn2-c2ccccc2)c(C)n1-c1ccc2c(c1)OCO2	-10%
O=C(NCCCN1CCCC1=O)c1ccc2c(c1)ncn2C1CCCCC1	3%

Another view of 2 compounds above.
mol | VDR inhibitor
CCOC(=O)c1nnn2c1nc(N(CC)CC)c1ccccc12 | 3%
COc1cc(/C=C/c2nc(C#N)c(N3CCCCC3)o2)cc(OC)c1OC | 2%
